Mtb growth – Confirmatory growth inhibition assay against Mycobacterium tuberculosis H37Rv, potency (AID 1949); 100,000 compounds, 1.6% hits; inhibition, % at 10 µg/mL; hits with a dose series show IC50 in µg/mL; most inactive calls were filed without a number and no value below 0 was filed;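 active means confirmed in a dose series; inconclusive means about 50% or more but not retested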;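 further: bacteria grown 7 days with compound before Alamar blue readout; 0% = untreated bacteria and 100% = reference antibiotic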
* marks the source's active call; other numbers are inactive results; i = inactive; ? = inconclusive.

SMILES	Mtb growth
O=C(Cn1cnc2ccccc2c1=O)c1ccc(-c2ccccc2)cc1	i
Cc1ccc(C2Nc3ccccc3NC3=C2C(=O)CCC3)cc1 (stereo not drawn)	i
CC(=O)Nc1nc(NC(C)=O)n(-c2ccccc2)n1	i
CC(Oc1ccc(F)cc1)C(=O)Nc1sc2c(c1C(=O)NCc1ccco1)CCCC2 (stereo not drawn)	1%
CCOC(=O)c1c(NC(=O)c2cccc(Cl)c2)sc(C(=O)OC)c1C	i
CCCC(C)NC(=O)c1ccc(Br)cc1 (stereo not drawn)	i
Cc1csc(NC(=O)C2C3C=CC(O3)C2C(=O)O)n1 (stereo not drawn)	i
COC(=O)c1c(N)n(-c2ccc(OC)c(Cl)c2)c2nc3ccccc3nc12	i
Cc1cc(Br)ccc1OCC(=O)NCc1ccccc1	0%
N#Cc1c(C(F)(F)F)cc(-c2ccco2)nc1SCc1ccccn1	i
O=C1CN(c2ccc(F)cc2)C(=S)N1c1ccccc1	i
COc1c(Cl)cc(Cl)cc1C(=O)Nc1ccccc1N1CCN(C(=O)c2ccccc2)CC1	20%
Cc1ccc(C(=O)Nc2ccccc2C(=O)N2CCN(Cc3ccccc3)CC2)cc1	i
O=C(Nc1ccc(Cl)cc1)C1CC(c2ccccc2O)=NO1 (stereo not drawn)	i
COC(=O)c1ccccc1NC(=O)CN(C)S(=O)(=O)c1ccc2ccccc2c1	i
Cc1ccccc1C(=O)NS(=O)(=O)c1ccccc1	i
NS(=O)(=O)c1ccc(NC(=S)Nc2ccc(S(=O)(=O)N3CCCC3)cc2)cc1	i
COc1ccc(OCCC(=O)N2CCCC2)cc1	i
O=C(CN1CCCC1)NCc1ccccc1	i
C/C(=N/N=C1\NC(=O)C(Cc2cccc(C(F)(F)F)c2)S1)c1ccc(C)cc1 (stereo not drawn)	5µg/mL*
O=C(COc1ccccc1)N1CCN(Cc2ccc(F)cc2)CC1	3%
Cc1ccc(NC(=O)c2c(-c3ccccc3)noc2C)c([N+](=O)[O-])c1	i
CCc1cccc(CC)c1NC(=O)COc1ccc(C(=O)NCc2ccccc2)cc1	i
CCOC(=O)c1ccc(N=C(N)N=C(N)N)cc1	i
CCCOc1ccc(CC(=O)Nc2cccc(C(F)(F)F)c2)cc1OC	i
COC(=O)c1cc(OC)c(OC)cc1NC(=O)c1ccoc1C	i
O=C(C1CCN(Cc2ccc3c(c2)OCO3)CC1)N1CCN(c2ccccc2F)CC1	i
COc1ccc(Cc2nnc(NC(=O)Cc3ccc(Br)cc3)s2)cc1	i
CCOc1ccccc1C1Nc2ccccc2NC2=C1C(=O)CC(c1ccccc1)C2 (stereo not drawn)	1%
Cc1onc(-c2ccccc2)c1C(=O)Nc1cccc(NC(=O)c2c(-c3ccccc3)noc2C)n1	i
CCN(CC)C(=O)c1cn(-c2ccccc2)nc1-c1ccc2c(c1)OCCO2	i
COc1ccccc1CN1CC(C(=O)O)CC1=O (stereo not drawn)	i
O=C(CSc1nnc(-c2ccc([N+](=O)[O-])cc2)n1Cc1ccccc1)N1CCOCC1	i
COC(=O)c1ccc(OCC(=O)Nc2ccccc2Cl)cc1	i
COc1cccc(C(=O)Oc2ccc3c(-c4ccccc4)cc(=O)oc3c2)c1	i
COCc1nnc(SCC(=O)N2c3ccccc3CCc3ccccc32)n1-c1ccccc1	i

As a working copy, 7 of the compounds above:
SMILES	Mtb growth
Cc1onc(-c2ccccc2)c1C(=O)Nc1cccc(NC(=O)c2c(-c3ccccc3)noc2C)n1	i
CCN(CC)C(=O)c1cn(-c2ccccc2)nc1-c1ccc2c(c1)OCCO2	i
COc1ccccc1CN1CC(C(=O)O)CC1=O (stereo not drawn)	i
O=C(CSc1nnc(-c2ccc([N+](=O)[O-])cc2)n1Cc1ccccc1)N1CCOCC1	i
COC(=O)c1ccc(OCC(=O)Nc2ccccc2Cl)cc1	i
COc1cccc(C(=O)Oc2ccc3c(-c4ccccc4)cc(=O)oc3c2)c1	i
COCc1nnc(SCC(=O)N2c3ccccc3CCc3ccccc32)n1-c1ccccc1	i

(more compounds)
SMILES	Mtb growth
CCOc1ccc(C(C)NC(=O)c2ccccc2)cc1 (stereo not drawn)	i
CCNC(=S)Nc1ccn(Cc2c(F)c(F)c(F)c(F)c2F)n1	3%
O=C(CC1NCCNC1=O)Nc1cccc(C(F)(F)F)c1 (stereo not drawn)	i
N#Cc1c(C(F)(F)F)cc(-c2cccs2)nc1SCc1cccnc1	i
CS(=O)(=O)N(CC(=O)N1CCCCC1)c1cc(Cl)ccc1Cl	i
CC(C)(C)Cc1nnc(NC(=O)c2cccc(I)c2)s1	9%
CC(C)NC(=O)CN(c1ccc(Cl)cc1Cl)S(=O)(=O)c1ccccc1	3%
CS(=O)(=O)N1CCN(C(=O)Cc2cccs2)CC1	i
COCCNC(=S)NNC(=O)c1ccccc1-n1cccc1	i
COc1ccc(-c2cc(=O)oc3cc(OCC(=O)c4ccc(Cl)cc4)ccc23)cc1	i
O=C(CCSc1nc2ccccc2o1)Nc1ccccc1C(F)(F)F	i
C=CCc1cccc(OC)c1OCCCNC	i
COc1cc(C2Nc3ccccc3NC3=C2C(=O)CC(c2cccs2)C3)cc(Br)c1O (stereo not drawn)	31%
O=C(Nc1ccc(F)c(Cl)c1)c1cccc(F)c1	9%
Cn1cnnc1SCc1nc(N)nc(Nc2ccccc2)n1	0%
CCOc1cc(C2C(C(=O)OCCc3ccccc3)=C(C)NC3=C2C(=O)CC(C)(C)C3)cc(Cl)c1O (stereo not drawn)	25%
O=C(Nc1ccc2c(c1)OCO2)C(O)(c1ccccc1)c1ccccc1	3%
COc1ccc(CNC2CC(=O)N(c3ccc(F)cc3)C2=O)cc1 (stereo not drawn)	i
O=C1c2oc3ccc(Cl)cc3c(=O)c2C(c2cccc(O)c2)N1Cc1ccc(F)cc1 (stereo not drawn)	i
O=C(O)CCC(=O)Nc1cccc(-c2nnc(-c3ccccc3)o2)c1	i
CC12CCC(C(=O)Nc3nc4ccc(Br)cc4s3)(OC1=O)C2(C)C (stereo not drawn)	2%
COc1cc(CNc2ccc(-c3nc4ccc(C)cc4s3)cc2)ccc1OCC(=O)NC(C)(C)C	3%
O=C(N1CCCC1)n1c(Cc2ccccc2)nc2ccccc21	i
CCN(CC)CCn1c(NCc2cccs2)nc2ccccc21	i
C1=CC2=CC=CC3c4nc5ccccc5nc4C(=C1)C23 (stereo not drawn)	1%
COC(=O)c1c(C)cc(OC(C)=O)c(C)c1OC(C)=O	2%
Cc1cccc(NC(=S)NCCN2CCOCC2)c1C	i
O=C(NCc1cccc(Cl)c1)c1ccc2c(c1)OCO2	2%
CCC(Oc1ccccc1)C(=O)O/N=C(\N)c1ccc(Cl)cc1 (stereo not drawn)	i
CCC(=O)Nc1ccc(C(=O)OCc2cccc(C(=O)OC)c2)cc1	10%
O=C(NCc1ccco1)c1ccc(Br)s1	8%
CCn1c(SCC(=O)Nc2nccs2)nnc1-c1ccc(OC)cc1	i
Cc1ccc2[nH]c(C)c(CN3CCN(C)CC3)c(=O)c2c1	i
Cc1ccc2nc(C(F)OC(F)(F)F)[nH]c2c1 (stereo not drawn)	i
COc1ccc(S(=O)(=O)N2Cc3ccccc3CC2C(=O)NCCc2ccc(OC)c(OC)c2)cc1 (stereo not drawn)	i
COC(=O)CC1C(=O)NCCN1C(=S)Nc1ccccc1Cl (stereo not drawn)	i
Cc1ccc(NC(=O)C(=O)NCCN2CCOCC2)cc1C	i
Cc1ccc(S(=O)(=O)Nc2c(-c3ccccc3)c3cc(Cl)ccc3[nH]c2=O)cc1	0%
Cc1cccc(-n2c(CCc3ccccc3)nnc2SCC(=O)Nc2ccccc2F)c1	i
CCc1ccc2oc(-c3ccc(C)c(C(=O)N/C=C/c4ccco4)c3)nc2c1	4%
O=C1CC(Sc2nnc(-c3ccccc3O)o2)C(=O)N1c1ccccc1 (stereo not drawn)	i
O=C(Nc1nc(-c2ccccc2)cs1)c1cccnc1	i
O=C(NC(=S)NCC1CCCO1)c1ccccc1[N+](=O)[O-] (stereo not drawn)	i
CCc1ccc(CCC(=O)Nc2ccccc2C(=O)O)o1	6%
COc1ccccc1OCCOCCOc1ccccc1Cl	5%
COc1ccc(NC(=O)NCCC2=CCCCC2)cc1OC	i
CCOc1ccc(Nc2nc(N)nc(CN3CC(C)CC(C)C3)n2)cc1 (stereo not drawn)	18%
NC(=O)c1ccccc1NC(=S)NC(=O)c1cccc2ccccc12	i
COC(=O)C(O)(c1ccc(NCc2ccccc2)cc1)C(F)(F)F (stereo not drawn)	i
COc1ccc(Cl)cc1NC(=O)CN(C)S(=O)(=O)c1ccc(OC)c(OC)c1	i
COc1cc(CNc2ccc(N3CCCC3)cc2)ccc1OCc1ccccc1F	i
Nc1ccc2c(c1)COc1ccccc1O2	i
O=C(COc1ccc(S(=O)(=O)NC2CCCCC2)cc1)Nc1ccc(Br)cc1	i
CCOc1cc(C2C(C(=O)Nc3ccccc3OC)=C(C)Nc3nnnn32)ccc1O (stereo not drawn)	i
NC(=O)c1ccccc1NC(=O)CN(c1cccc(C(F)(F)F)c1)S(=O)(=O)c1ccccc1	1%
C=CCc1ccccc1OCc1n[nH]c(=S)n1CC=C	10%
CCc1ccc(OCC(=O)Nc2ccc(Nc3ccccc3)cc2)c(Br)c1	i
Cc1occc1C(=O)Nc1sc(C(=O)OC(C)C)c(C)c1C(=O)OC(C)C	i
O=C(Nc1c(F)cccc1F)c1ccc(Cl)cc1	i
COC(=O)C1=CN(CCc2ccc(OC)cc2)C=C(C(=O)OC)C1c1ccc2c(c1)OCO2	i

Additional structures:
SMILES	Mtb growth
CCOC(=O)N1CCC(NC(=O)c2sc3nc4c(c(C(F)(F)F)c3c2N)CC(C)CC4)CC1 (stereo not drawn)	5%
COc1ccc(OC)c(CN2CCN(Cc3cccc(OC)c3OC)CC2)c1	i
CN1CCc2nc(SCC(=O)Nc3ccc(C(C)(C)C)cc3)c(C#N)cc2C1	i
COc1ccc(-c2nc3ccccc3n2Cc2ccc(C)cc2)cc1	47%
COc1ccc(C(=O)Oc2ccc(Br)cc2C=O)cc1OC	i
CCOC(=O)c1cnc2ccc(Br)cc2c1Nc1ccc(O)cc1	0%
O=C1NC(=O)C(=CN2CCC(Cc3ccccc3)CC2)C(=O)N1	i
O=C(COc1ccc2ccccc2c1)Nc1ccc(I)c(C(=O)O)c1	i
CCOC(=O)C1=NN(c2ccc(OC)cc2)C2(S1)SC(C(=O)OC)=C(C)N2c1ccccc1 (stereo not drawn)	i
N#Cc1c(C(F)(F)F)cc(-c2ccco2)nc1SCC(=O)OCc1ccccc1	?
CS(=O)(=O)N(CC(=O)NCc1ccco1)c1ccc(F)cc1	i
Cc1ccc(Oc2coc3cc(OCC(=O)OC(C)C)ccc3c2=O)cc1	i

3 compounds drawn at random from those above:
SMILES	Mtb growth
CCOC(=O)c1cnc2ccc(Br)cc2c1Nc1ccc(O)cc1	0%
CCOC(=O)N1CCC(NC(=O)c2sc3nc4c(c(C(F)(F)F)c3c2N)CC(C)CC4)CC1 (stereo not drawn)	5%
O=C1NC(=O)C(=CN2CCC(Cc3ccccc3)CC2)C(=O)N1	i

Going on with the list.
SMILES	Mtb growth
O=C(CSc1ccccn1)Nc1cccc2ccccc12	36%
CCOC(=O)NCC1(C)CC(NC(=O)OCC)CC(C)(C)C1 (stereo not drawn)	1%
CCCCOc1cccc(-c2nnc(NC(=O)c3cccs3)s2)c1	i
Cc1cc(Br)cc(C)c1OCC(=O)Nc1ccc(S(=O)(=O)NC2CCCCC2)cc1	1%
CCN(CC)c1ccc(NC(=O)COc2ccccc2OC)cc1	i
COc1cccc(S(=O)(=O)Nc2ccc(F)cc2)c1	i
CC(C)OC(=O)c1c(-c2ccc(Cl)cc2Cl)csc1N	3%
CC(=O)c1ccc(N2CCN(C(=O)c3cc(-c4ccccc4)nc4ccccc34)CC2)cc1	1%
COc1ccc(S(=O)(=O)N(C)CC(=O)Nc2cccc(Br)c2)cc1C	i
CN1CCN(NC(=O)c2cc(Br)ccc2Cl)CC1	4%
COc1ccc(C(=S)N2CCCCC2)cc1O	i
COc1ccc(-c2nc(NC(=O)c3ccccc3)n[nH]2)cc1OC	1.5µg/mL*
Nc1nc(SCc2ccc3c(c2)OCCO3)n[nH]1	i
Cc1cc(Cl)ccc1NC(=S)NCc1cccnc1	i
Cc1c(C(=O)NNC(=O)NC23CC4CC(CC(C4)C2)C3)oc2ccccc12	12%
O=C(CCSc1ccc([N+](=O)[O-])cc1)NCC1CCCO1 (stereo not drawn)	10%
CCn1c(C(C)NC(=O)c2cccc(C)c2)n[nH]c1=S (stereo not drawn)	i
COc1cc(NC(=O)COc2ccc(Br)cc2)ccc1NC(=O)c1ccccc1Cl	i
Cc1cc(Cl)c(S(=O)(=O)Nc2cccnc2)cc1OCC(=O)NC1CCCCC1	i
Nc1ccccc1NCCOc1ccccc1	1µg/mL*
COc1ccc(C(=S)NCc2ccccc2)cc1	i
CCOC(=O)c1ccccc1NC(=O)CN(c1ccccc1)S(=O)(=O)N(C)C	3%
O=C(c1ccc(N2CCN(C3CC(=O)N(c4ccc(F)cc4)C3=O)CC2)cc1)c1cccs1 (stereo not drawn)	1%
CCCCOc1cccc(C(=O)Nc2cccc(-c3nc4ncccc4o3)c2C)c1	0%
CCOc1cc(C(=S)N2CCCCC2)ccc1OS(=O)(=O)c1ccc(Br)cc1	i
Fc1ccccc1COc1ccc(-c2nnc3ccc4ccccc4n23)cc1	3%
CCCC(=O)Nc1ccc(N2CCN(C(=O)c3ccc(C)cc3)CC2)cc1	i

7 entries from above, bar-delimited:
Structure | Mtb growth
COc1cc(NC(=O)COc2ccc(Br)cc2)ccc1NC(=O)c1ccccc1Cl | i
Cc1cc(Cl)c(S(=O)(=O)Nc2cccnc2)cc1OCC(=O)NC1CCCCC1 | i
Nc1ccccc1NCCOc1ccccc1 | 1µg/mL*
COc1ccc(C(=S)NCc2ccccc2)cc1 | i
CCOC(=O)c1ccccc1NC(=O)CN(c1ccccc1)S(=O)(=O)N(C)C | 3%
O=C(c1ccc(N2CCN(C3CC(=O)N(c4ccc(F)cc4)C3=O)CC2)cc1)c1cccs1 (stereo not drawn) | 1%
CCCCOc1cccc(C(=O)Nc2cccc(-c3nc4ncccc4o3)c2C)c1 | 0%

Screening data as filed in PubChem BioAssay.

The list is partial; the hit share may differ from the screen's.
